Compound activity from PubChem.
NPYLR7 agonist: activates Aedes aegypti NPYLR7 receptor; activation, % at 10 µM; HEK293T NPYLR7/Galpha15, GCaMP6s calcium fluorescence; hit rate 0.15% among 270,000; AID 1259423; in the data active = activation above about 40%;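 also: 0% = vehicle and 100% = reference agonist at the receptor; some compounds past the cut are filed as inactive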
NPYLR7 agonist max-min: second read-out of NPYLR7 agonist, no call of its own (marks repeat the call); activation, %; measured here: Max-Min RFU normalised activation; some inactives read as strong as hits;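 span of the calcium signal over five minutes; 0% = vehicle and 100% = native peptide agonist; compound fluorescence can raise it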
* marks the source's active call; other numbers are inactive results; & = joins results of further samples.

SMILES	NPYLR7 agonist	NPYLR7 agonist max-min
O=C(NCc1cc(F)cc(F)c1)c1cc(-c2ccc3c(c2)OCO3)nc2ccccc12	2.0	-4.7
Cc1cc(S(=O)(=O)N2CCN(CCCOC(c3ccc(Cl)cc3)c3ccc(Cl)cc3)CC2)c(C)cc1Cl	2.5	0.1
Cc1cc(C(=O)NC2CCCCCCC2)c(C)n1Cc1ccccn1	-0.7	-1.8
C#CCN(CC=C)C(=O)C1CCC(=O)N(CCOC)C1 (centres undefined)	3.1	1.9
CC(C(=O)Nc1ccc(F)cc1F)N1CCN(c2nccs2)CC1 (centres undefined)	1.5	0.4
CCn1c(SCC(=O)Nc2cc(F)ccc2F)nc2c(-c3ccccc3)c[nH]c2c1=O	-2.7	-4.3
Cc1cc(-c2ccc(NN=C3C=Cc4c(S(=O)(=O)O)cc(S(=O)(=O)O)c(N)c4C3=O)c(C)c2)ccc1NN=C1C=Cc2c(S(=O)(=O)O)cc(S(=O)(=O)O)c(N)c2C1=O	0.3	0.4
CC1CCc2c(sc3ncnc(Nc4ccc5c(c4)OCCCO5)c23)C1 (centres undefined)	-1.3	-1.2
CC(NC(=O)c1cc(-c2cccs2)nn1-c1ccc(Cl)cc1)c1ccccc1 (centres undefined)	24.6	33.3
Cc1nn(-c2ccc(N3CCNCC3)nn2)c(=O)c2ccccc12	-13.9	-19.3
Cc1occc1C(=O)N1CCCC(O)(CO)CC1 (centres undefined)	15.9	13.3
CC1(C(=O)NS(=O)(=O)c2ccc3ccccc3c2)CCN1C(=O)CC1CCCCC1 (centres undefined)	-0.8	-3.6
COc1ccccc1CNC(=O)Cc1ccc2c(c1)OCCO2	-2.4	-2.3
COc1ccc(-c2cnc(-c3ccc(CNC(=O)c4ccc(N(C)C)cc4)cc3)[nH]2)cc1	-1.7	4.0
CCCCCC(=O)N(CCc1ccccc1)C(CC)c1nc2ccccc2c(=O)[nH]1 (centres undefined)	14.5	23.6
FC(F)(F)c1nc2c(Cl)cc(Cl)cc2[nH]1	3.3	-0.6
COc1ccc(C(=O)N2CCN(C(c3ccccc3)c3ccccc3)CC2)cc1Oc1nc(Cc2ccc(F)cc2)ns1	24.3	31.2
CC(=O)c1ccc(NC(=O)CCn2cncn2)cc1	1.7	11.3
CCC(=O)N1C(Cc2ccccc2)COC1(C)C (centres undefined)	10.5	6.6
COC(=O)c1cccc(C(=O)N2CCc3c([nH]c4ccccc34)C2c2ccc(F)cc2)c1 (centres undefined)	3.7&0.4	-1.7&0.7

Given as a markdown table: entries from further up
| Compound | NPYLR7 agonist | NPYLR7 agonist max-min |
| --- | --- | --- |
| COc1ccc(-c2cnc(-c3ccc(CNC(=O)c4ccc(N(C)C)cc4)cc3)[nH]2)cc1 | -1.7 | 4.0 |
| COc1ccc(C(=O)N2CCN(C(c3ccccc3)c3ccccc3)CC2)cc1Oc1nc(Cc2ccc(F)cc2)ns1 | 24.3 | 31.2 |
| COC(=O)c1cccc(C(=O)N2CCc3c([nH]c4ccccc34)C2c2ccc(F)cc2)c1 (centres undefined) | 3.7&0.4 | -1.7&0.7 |

The listing continues.
SMILES	NPYLR7 agonist	NPYLR7 agonist max-min
Cc1cccc2c(-c3ccc[nH]c3=O)c[nH]c12	0.7	-2.8
CC(C)Sc1ccc2nnc(-c3ccccn3)n2n1	-3.7	-4.9
CCOC(=O)Cn1c(=O)n(-c2ccc(C)cc2)c(=O)c2oc3ccccc3c21	-4.4	-7.3
CCN(CC)C(=O)Oc1ccc2c(ccn2Cc2ccc(F)cc2C(F)(F)F)c1-c1ccc(F)c(F)c1	6.3	2.8
CCCCCN(CC(=O)N1CCc2sccc2C1c1ccccc1C)S(=O)(=O)c1ccc(Cl)cc1 (centres undefined)	1.1	2.4
Cc1cc(C)n(-c2ccc(CNS(=O)(=O)c3ccc(F)c(F)c3)cn2)n1	-2.5	-4.5
CC(C)CN(Cc1nccn1Cc1c(F)cccc1Cl)C(=O)C1CC1	6.1	8.1
CCN(Cc1ccccn1)C(=O)c1ccc(OCC(=O)N2CCCCC2)cc1	1.5	-2.7
O=C(NCCSc1cn[nH]n1)c1ccc2c(c1)OCO2	-0.5	-1.1
CC(=O)N(CCN(C)C)c1nc2ccc(Cl)cc2s1	-3.6	-7.5

An excerpt of these results, with each value named:
CC(C(=O)Nc1ccc(F)cc1F)N1CCN(c2nccs2)CC1 (centres undefined)
  NPYLR7 agonist = 1.5
  NPYLR7 agonist max-min = 0.4

C#CCN(CC=C)C(=O)C1CCC(=O)N(CCOC)C1 (centres undefined)
  NPYLR7 agonist = 3.1
  NPYLR7 agonist max-min = 1.9

CC(C)Sc1ccc2nnc(-c3ccccn3)n2n1
  NPYLR7 agonist = -3.7
  NPYLR7 agonist max-min = -4.9

Cc1occc1C(=O)N1CCCC(O)(CO)CC1 (centres undefined)
  NPYLR7 agonist = 15.9
  NPYLR7 agonist max-min = 13.3

(more compounds)
SMILES	NPYLR7 agonist	NPYLR7 agonist max-min
OC(CN1CCc2ccccc2C1)c1ccccc1F (centres undefined)	-18.5	-20.4
CCCCc1ccc(Nc2ncnc(N)c2[N+](=O)[O-])cc1	2.9	12.3
CN(C)CCN(C(=O)CS(=O)(=O)c1ccccc1)c1nc2ccc(Br)cc2s1	-3.4	-10.3
COC(=O)c1sccc1S(=O)(=O)N1CCc2c(ncnc2N(C)C)C1	8.0	3.9
COc1cccc(NC(=O)CC2C(=O)NC3(CCCC3)CN2Cc2cncs2)c1 (centres undefined)	28.7	23.2
Cc1nc(C2CCCN2C(=O)CS(=O)(=O)C2CCCC2)no1 (centres undefined)	2.6	-0.7
COc1cccc(-c2cccc3[nH]ccc23)n1	10.8	7.6
CCNC(=O)NC(=O)C(C)Sc1nnc(C2CC2)n1C1CC1 (centres undefined)	-0.2	23.8
O=C(COc1ccccc1)Nc1nnc(SCC(=O)N2CCc3ccccc32)s1	4.1	6.8
Cc1csc2nc(CNc3ccc(NC(=O)C4CC4)cc3C(F)(F)F)cc(=O)n12	-3.2	-0.6
CCC(=O)Nc1ccc(OCC(=O)N2[C@@H]3CC[C@H]2CC(O)C3)cc1 (some centres undefined)	1.3	44.2
CCC(C)(C)c1nnc(NC(=O)NCc2ccc(F)cc2F)s1	14.3	9.5
O=C(NCCn1nc(-c2cccs2)ccc1=O)C1c2ccccc2Oc2ccccc21	0.3	-0.8
COC(=O)c1cn(C2CCCCC2NS(=O)(=O)c2ccc(C)cc2)nn1 (centres undefined)	7.4	2.7
Cc1nn(C)c2sc(C(=O)OCC#N)cc12	-3.5	-6.1
CN1CCCn2nc(C(=O)N3CCCC(OCc4ccccn4)C3)cc2C1 (centres undefined)	4.0	-2.0
O=C(NC(C(=O)N/N=C\c1ccc(Cl)cc1Cl)c1n[nH]c(=O)c2ccccc12)c1ccccc1 (centres undefined)	9.4	20.0
COc1ccc(S(=O)(=O)NC(=O)C2(C)CCN2C(=O)CCc2ccc(Cl)cc2Cl)cc1 (centres undefined)	6.7	4.1
CCOc1ncccc1NC(=O)c1csc(Br)c1	0.2	-1.0
CCCCOc1ccc(C(=O)Nc2ccc(N3CCC(Cc4ccccc4)CC3)c(C(=O)NCc3cccnc3)c2)cc1	3.4	19.9

Part of the list above in order of molecular weight, low to high.
SMILES	NPYLR7 agonist	NPYLR7 agonist max-min
Cc1nn(C)c2sc(C(=O)OCC#N)cc12	-3.5	-6.1
COC(=O)c1cn(C2CCCCC2NS(=O)(=O)c2ccc(C)cc2)nn1 (centres undefined)	7.4	2.7
O=C(NC(C(=O)N/N=C\c1ccc(Cl)cc1Cl)c1n[nH]c(=O)c2ccccc12)c1ccccc1 (centres undefined)	9.4	20.0

Going on with the list.
SMILES	NPYLR7 agonist	NPYLR7 agonist max-min
Cc1cccc(-n2nc(C#N)c3nc4ccccc4n3c2=O)c1	-0.7	-3.1
CCOC(=O)c1nn(-c2ccccc2Cl)c(=O)cc1OS(=O)(=O)c1ccc(CC)s1	10.4	4.8
CCC(OC)c1n[nH]c(=O)n1CC(=O)O (centres undefined)	0.2	10.9
O=S(=O)(NCCNc1ccccn1)N1CCC2(CCCCC2)CC1	-4.1	-5.1
COc1coc(C(=O)Nc2nc(C)c(C(=O)N(C)C)s2)cc1=O	-5.0	-6.5
Cc1csc(N(C(=O)c2n[nH]c3c2CCCC3)C2CC2)n1	-5.1	-4.4
Cc1nc(CC(=O)N2CCc3nnc(CCc4ccccc4)n3CC2)c(C)s1	5.0	1.3
CC1C=CCC2C(=O)N(c3cccc([N+](=O)[O-])c3)C(=O)C12 (centres undefined)	8.0	4.5
CSc1ccccc1C(=O)NC(C)c1ccc(F)cc1 (centres undefined)	1.0	0.8
Cc1ccn2c(=O)c(NC(=O)c3sc(-c4ccccc4)nc3C)c(C)nc2c1	4.8	1.1
CC(=O)N1CCc2cc(C(=O)C(C)Oc3ccc(C#N)cc3Cl)ccc21 (centres undefined)	-1.3	-4.1
Cn1c(=O)[nH]c(=O)c2[nH]c(N3CCN(c4ccccc4)CC3)nc21	6.6	4.4
COCCNC(=O)c1ccc(Nc2c(Oc3ccc(OC)cc3)cnn(-c3ccc(Cl)cc3)c2=O)cc1	12.5	15.2
FC(F)(F)c1cccc(N2CCN(C3CCCN(C4C5CC6CC(C5)CC4C6)C3)CC2)c1 (centres undefined)	7.1	1.6
Cc1ccc(C2(O)CCN(C(=O)CC3NC(=O)c4ccccc43)CC2)nc1 (centres undefined)	3.2	1.5
Oc1cccc(-c2nc3ccc(Br)cn3c2NC2CCCCC2)c1	12.5	13.7
Cc1nnc(NC(=O)c2nc(-c3cccs3)n(-c3ccccc3)n2)s1	0.3	-0.5
CCCN(CCC)C1=NC(=[N+](CCC)CCC)c2ccccc21	0.7	66.2
COc1ccc(CCN(Cc2cccs2)C(=O)CN(C(=O)Nc2ccc(Br)cc2)C(C)C)cc1OC	3.9	-3.1
COc1cccc(-c2nc3ccccn3c2NC(=O)COc2ccccc2)c1	11.8	15.8
Cc1ccc(C(=O)N2CCN(C(=O)CCCSc3nnc(-c4ccc(C)cc4)n3-c3cccc(C)c3)CC2C)cc1 (centres undefined)	-6.6	-3.2
COc1ccc(-c2cc(=O)c3cc(OC)ccc3o2)cc1	-1.1&-0.4	-9.9&-3.5
CC1(C(=O)NCc2ccc3c(c2)OCO3)CCN1C(=O)COc1ccc(Cl)cc1 (centres undefined)	9.9	6.5
COCCNC(=O)Cn1nc2c(c1NC(=O)c1ccc(Br)o1)CSC2	-4.3	2.2
CCOC(=O)C1CCN(C(c2ccc(C)cc2)C2Sc3nc(-c4ccco4)nn3C2=O)CC1 (centres undefined)	-0.8	-2.0
Oc1[nH]c2c(Cl)cc(Cl)cc2c1N=Nc1ccc(Cl)cc1	3.1	-6.4
Cc1ccc(-c2nc(C)c(C(C)C)c(N3CCN(C(=O)Nc4ccc(C)c(C)c4)CC3)n2)cc1	-1.5	13.0
Cc1ccc(-c2cncnc2)c2cccnc12	1.0	-1.4
CSc1nnc2c(n1)OC(c1cc3c(cc1Br)OCO3)Nc1ccccc1-2 (centres undefined)	4.2	-0.7
Nc1cc(-c2cccc(Cl)c2)nn1-c1ccc(C(=O)N2CCOCC2)cc1	-7.9	-15.4
Cc1cccc(C2c3cccn3-c3ccccc3N2C(=O)CN(C(=O)c2ccc([N+](=O)[O-])cc2Cl)C2CC2)c1 (centres undefined)	25.2	22.2
Cn1c(-c2cc(-c3ccccc3)c3cc(Br)ccc3n2)nc2ccccc21	6.0	6.1
CC1SC(c2ccc(F)cc2F)N(CCO)C1=O (centres undefined)	1.2	0.7
NC(=O)c1ccccc1OCc1ccccc1C(F)(F)F	6.5	2.0
Cc1cc(C)cc(-n2c(C)c(C)n3c4c(=O)n(CCN5CCCCC5)c(=O)n(C)c4nc23)c1	0.9	9.5
CC(C)(C)CC(C)(C)NC(=O)CNC(=O)OC(C)(C)C	14.0	11.0
Cc1noc(C)c1CN(C)Cc1ccc(C2CCCCO2)o1 (centres undefined)	0.8	0.2
CNc1nnc(SCc2ccccc2Br)s1	16.4	6.9
N#Cc1nc(-c2ccc(COc3ccc(Cl)cc3)o2)oc1NCC1CCCO1 (centres undefined)	0.5	7.7
Cc1noc(C)c1CSc1nc2cc(S(=O)(=O)N3CCCC(C)C3)ccc2n1CC1CCCO1 (centres undefined)	5.8	1.8
CCOC(=O)[C@@H]1[C@@H](OC)C(=O)N(Cc2ccccc2)C12CCN(C(=O)c1ccc3c(c1)OCO3)CC2	19.0	27.2
CC(=O)O[C@@H](C)C(=O)N1CCN(Cc2cc(=O)c(OCc3ccc(C(C)(C)C)cc3)co2)CC1	-7.4	-0.4
Cc1c(C(C)NC(=O)/C=C/c2cccs2)cnn1-c1ccccn1 (centres undefined)	13.9	6.7
CCNC(=O)C1(C)CCCN(Cc2noc(-c3ccccc3)n2)C1 (centres undefined)	6.5	1.1
CC(=O)Nc1ccc(NC(=O)CSc2nc(=O)n(CCCN(C)C)c3c2CCCC3)cc1	2.2	7.6
CC1(N2CCOCC2)CC2(O)C(=[N+]1[O-])CCc1c2no[n+]1[O-] (centres undefined)	9.3	6.9
CCN(CC)C(=O)Oc1ccc2c(ccn2Cc2cccc(Cl)c2F)c1-c1ccc(C)cc1	6.5	1.2
Cc1[nH]c2ccc(C(=O)NCC(=O)N3CCCC3)cc2c1C	-0.6	-1.3
CCNc1nnc(SCC(=O)NC(=O)NC(C)(C)C)s1	12.2	5.1
Cc1cccc(NC(=O)CSc2cn(CC(=O)N3CCOCC3)c3ccccc23)c1	-0.8	-2.6

Next structures
SMILES	NPYLR7 agonist	NPYLR7 agonist max-min
Cc1csc(-c2cccc(OS(=O)(=O)c3cnc[nH]3)c2)n1	5.2	1.7
COc1cccc(CCC(=O)Nc2cc3c(cc2C(=O)O)OCCCO3)c1OC	12.0	7.0
CCN(CC)c1cc(C)nc(Nc2ccc(NS(=O)(=O)c3ccc4nc(C)sc4c3)cc2)n1	7.7	6.4
CCNC(=O)C(C1CCCC1)N1CCN(C(=O)Nc2ccc(OC)cc2)CC1 (centres undefined)	5.9	6.9
O=C(Cn1nc(-c2ccc(F)cc2)c2sc(N3CCOCC3)nc2c1=O)Nc1cccc(F)c1	-5.6	-9.5
Nc1cc(C(=O)NCCCc2nc3ccccc3s2)[nH]n1	4.3	3.5
COCc1ncc(CN2CCN(c3ccccc3C)CC2C)cn1 (centres undefined)	7.1	5.3
CC(=O)Nc1ccc(CN2CCn3c(nnc3C(=O)NC(C)C)C2)cc1	7.7	4.0

An excerpt; rates above refer to the full screens.
